# Screening results deposited in PubChem BioAssay by National Center for Advancing Translational Sciences (NCATS).
# AID923: qHTS Assay for Allosteric/Competitive Inhibitors of Caspase-1: Spectroscopic Profiling in AFC Spectral Region | compound fluorescence, AFC spectral region (405/520 nm); almost no hit is shown here | Potency, µM (top dose mostly 57.5 µM), for the others: top-dose fluorescence increase, hits mostly activators | hit rate 1.1% among 75,000 | AID 923, 2007; active = well fitted activation curve with a large enough effect; inconclusive = small, poorly fitted or top-dose-only effect;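 also: potency is read from the fitted curve at half-maximal effect; 0% is about no effect; scaled to a free AFC standard on each plate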
#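 Baseline compound fluorescence (AFC region, 405 nm ex/520 nm em) taken from the intercept of kinetic reads with 50 nM caspase-1 and 5 uM Ac-WEHD-AFC; normalized to an on-plate AFC standard curve; compounds titrated up to 57 uM.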
# A488 fluor: A488 region autofluorescence; compound autofluorescence, A488 spectral region, dye equivalency; stronger effect = higher value; max dye equivalency, M; hit rate 0.1% among 59,000; active = above 10 nM dye equivalent; inconclusive = 1 to 10 nM; inactive = 1 nM or less; about half of its hits are not listed in these tables;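 also: highest value over a series up to 38 µM; compound alone in buffer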
#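 Read-out: relative fluorescence at 480/540 nm, expressed as Alexa 488 dye-equivalent concentration from a six-point A488 standard included per plate. Conditions: 100 mM Tris, pH 8.0; 15 min incubation, room temperature.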
# TSHR ag: agonists of human thyroid stimulating hormone receptor. P16473. HEK293-CNG-TSHR cells (CNG channel as cAMP sensor), membrane potential dye, cAMP. Potency, µM (highest dose often 57.1 µM), for inactives: at the highest dose activation, usual class: activators. hit rate 0.48% among 73,000; active = well fitted activation curve of enough size with the parental cells flat; inconclusive = any curve in the parental cells; inactive = parental cells flat and receptor cells flat or falling; also: potency is read from the fitted curve at half-maximal effect; % of control where 0% means no effect; weak receptor curves with flat parental cells got no call and are not listed
# Target sequence (P16473 whole entry, looked up): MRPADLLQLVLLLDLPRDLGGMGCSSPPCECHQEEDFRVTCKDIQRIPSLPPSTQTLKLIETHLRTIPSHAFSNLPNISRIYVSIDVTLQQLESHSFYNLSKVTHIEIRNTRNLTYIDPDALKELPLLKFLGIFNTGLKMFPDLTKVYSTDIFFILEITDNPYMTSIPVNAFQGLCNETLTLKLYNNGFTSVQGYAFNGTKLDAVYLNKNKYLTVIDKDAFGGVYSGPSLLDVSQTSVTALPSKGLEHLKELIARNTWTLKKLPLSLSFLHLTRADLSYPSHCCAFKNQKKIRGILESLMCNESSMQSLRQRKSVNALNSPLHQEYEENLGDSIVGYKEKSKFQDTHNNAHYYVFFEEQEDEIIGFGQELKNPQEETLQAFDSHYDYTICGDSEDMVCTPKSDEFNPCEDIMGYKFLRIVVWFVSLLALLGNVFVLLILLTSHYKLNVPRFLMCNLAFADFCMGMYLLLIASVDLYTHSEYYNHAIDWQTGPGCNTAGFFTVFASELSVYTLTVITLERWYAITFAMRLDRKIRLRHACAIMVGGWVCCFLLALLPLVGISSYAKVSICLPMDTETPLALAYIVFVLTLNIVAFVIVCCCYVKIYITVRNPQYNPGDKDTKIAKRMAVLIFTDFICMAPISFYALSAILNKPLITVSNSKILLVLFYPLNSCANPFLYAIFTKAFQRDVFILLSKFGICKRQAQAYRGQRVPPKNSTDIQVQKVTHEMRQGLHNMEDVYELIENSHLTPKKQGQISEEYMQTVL
#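 HEK 293 cells stably expressing TSHR and a modified CNG channel, with CNG-only parental cells as counterscreen, were preloaded 60 min at room temperature with membrane potential dye containing 100 uM RO 20-1724. Compound exposure was 30 min, and depolarization was read as fluorescence at 590 nm.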
# Resorufin fluor: compound fluoresces in the resorufin spectral region. Compound fluorescence, resorufin region 547/598 nm, buffer; stronger effect = higher value. max dye-equivalent concentration, M. hit rate 0.04% among 59,000. AID 588; active = above 10 nM dye equivalent; inconclusive = 1 to 10 nM; inactive = 1 nM or less; a few of its hits are not listed in these tables; also: highest value over a series up to 38 µM
#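 Read-out: intrinsic compound fluorescence at ex 547/em 598 nm after 15 min at RT in pH 8.0 Tris (100 mM). Values expressed as resorufin-equivalent concentration from per-plate standard series.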
# A647 autofl: compound fluoresces in the A647 spectral region. AID 592. 59,000 tested, under 10 active. Compound fluorescence, A647 channel (570/671 nm), Tris buffer. max dye-equivalent concentration, M; active means above 1 µM dye equivalent; inconclusive means 0.1 to 1 µM; inactive means 0.1 µM or less;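 also: values scaled relative to a standard on each plate; highest value over a series up to 38 µM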
#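 Each compound's intrinsic fluorescence at 570 nm excitation and 671 nm emission is measured across its concentration series in 100 mM Tris, pH 8.0, after 15 min at room temperature, and reported relative to an A647 curve.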
# * marks the source's active call; other numbers are inactive results; i = inactive; ? = inconclusive; nt = no result given; [ ] = dose if it differs, or a comment. A portion of the library; the hit share may differ from the screen's.
# Under each structure: AID923, A488 fluor, TSHR ag, Resorufin fluor, A647 autofl
COc1ccc2c(CC(=O)N(C)CC3COc4ccccc4O3)coc2c1 (configuration not stated)
  0.8%, i, 10%, i, 4.7e-09
C=CCc1cccc(CNc2nc3ccccc3n2CCN2CCOCC2)c1O
  0.4%, i, 3%, i, 1.5e-09
Cn1c(SCc2cccc(F)c2)nnc1-c1ccccn1
  1.9%, i, 0%, i, 3.5e-08
O=C(O)c1cc(-c2ccncc2)nc2ccc(S(=O)(=O)N3CCOCC3)cc12
  0.4%, i, 8%, i, 1e-09
CCOc1ccc(NC(=O)CC2NCCNC2=O)cc1 (configuration not stated)
  -1.4%, i, -10%, i, 1e-09
CC(=O)Nc1ccn(Cc2c(F)cccc2Cl)n1
  -0.8%, i, 5%, i, 5.8e-09
Cc1nnc(SCC2=C(C(=O)O)N3C(=O)[C@@H](NC(=O)Cn4cnnn4)[C@H]3SC2)s1
  nt, i, nt, i, 2.2e-08
CCOC(=O)N1CCN(c2c(-c3ccccc3)c3cc(Cl)ccc3[nH]c2=O)CC1
  0.4%, i, ?, i, 3.8e-09
COc1ccc2ccccc2c1/C=C\C(=O)c1ccccc1
  5.8%[11.5 µM], i, 12%[11.4 µM], i, 6.9e-09
CC1CCCCC1NC(=O)Cn1cnc2ccccc2c1=O (configuration not stated)
  -0.5%, i, -2%, i, 3.9e-09
Cc1ccc(S(=O)(=O)CCSc2nc(C)cc(C)c2C#N)cc1
  -1.1%, i, ?, i, 1e-08
COc1cccc(CSc2nnc(-c3ccco3)n2C)c1
  1.7%, i, 11%, i, 1e-09
CCC(C)(C)n1nnnc1C(c1cc2cc(C)ccc2[nH]c1=O)N1CCCC1 (configuration not stated)
  8.0%, i, 6%, i, 1e-09
Cc1cc(N2CCN(C)CC2)n2nc(-c3ccc(Cl)cc3)nc2n1
  1.0%[11.5 µM], i, 7%[11.4 µM], i, 5.8e-08
CC(=O)c1ccc(NC(=O)c2ccc(S(=O)(=O)N3CCCC3)cc2)cc1
  -0.6%, i, ?, i, 2e-08
CCOC(=O)C1=C(C)NC(=O)NC1c1ccc(F)cc1 (configuration not stated)
  -1.0%, i, 6%, i, 1.6e-08
Cc1c[n+]([O-])n(-c2ccc(C(=O)O)cc2)n1
  -0.5%, i, 0%, i, 2.6e-08
Cc1ccc(-n2c(N)c(C(=O)N3CCN(C)CC3)sc2=S)cc1
  -1.4%, i, 4%, i, 5e-09
COc1ccc(N2CCN(CCNC(=O)c3nnc(Cc4c(F)cccc4Cl)o3)CC2)cc1
  -0.7%, i, 8%, i, 1e-09
COc1ccc(CCC(=O)Nc2ccc(Br)cn2)cc1
  1.9%, i, ?, i, 5.8e-09
CO[C@H]1COC(=O)C/C=C\[C@H](C)[C@H](OC)COC(=O)[C@@H](C)NC(=O)C/C=C\[C@@H]1C
  -1.0%[11.5 µM], nt, -1%[11.4 µM], nt, nt
Cc1ccc(-c2ccc(CCC(=O)O)n2Cc2ccco2)cc1
  7.7%, i, -3%, i, 2.8e-08
CC1CCN(C(=O)Cn2c(=O)oc3ccccc32)CC1
  0.2%, i, -1%, i, 1e-09
CCC/C=C(\CCC)C(NC(=O)c1ccc(C(F)(F)F)cc1)c1ccccc1 (configuration not stated)
  -0.9%, nt, ?, nt, nt
N=C(N)SCc1nc(-c2ccc(Cl)cc2)no1
  1.8%[11.5 µM], i, -13%[11.4 µM], i, 4.8e-09
O=C(NCc1nc2ccccc2[nH]1)c1ccc(S(=O)(=O)N2CCOCC2)cc1
  0.5%, i, nt, i, 1e-09
CS(=O)(=O)N(CC(=O)O)c1ccccc1
  1.9%, nt, 2%, nt, nt
Cc1cc(C)n(C(=O)COc2c(C)cccc2C)n1
  20%, i, -1%, i, 3.9e-08
Cc1ccc(NC(=O)CSC2=C(C#N)C(c3ccco3)C3=C(CCCC3=O)N2)cc1 (configuration not stated)
  nt, i, nt, i, 3.7e-08
O=C(O)c1ccc(CNc2ccccc2C(=O)O)cc1
  -0.3%, i, 2%, i, 2.9e-08
CN(Cc1nc(-c2ccncc2)no1)S(=O)(=O)c1ccc(Cl)cc1
  0.4%, i, 22%, i, 6.7e-09
O=C(CCN1CCN(CC(=O)Nc2ccccc2Cl)CC1)Nc1ccccc1F
  -0.7%, i, 10%, i, 1e-09
CN(Cc1cc2ccccc2[nH]c1=O)S(=O)(=O)c1ccccc1
  0.1%, i, -6%, i, 1e-09
CCOC(=O)c1[nH]c(C)c(C(=O)Nc2ccc3c(c2)CCC3)c1C
  -0.8%, i, 22%, i, 1.2e-08
CC(=O)O[C@H]1C2=C(C(=O)[C@H]3O[C@@H]31)[C@@H]1[C@@H]3[C@@H](C)OC=C4[C@H](O)[C@H]5O[C@@H]5C(=O)[C@]43C2O[C@H]1C
  0.4%[11.5 µM], nt, 11%[11.4 µM], nt, nt
O=C(C1CCCCC1)N1CCN(c2ncccn2)CC1
  4.8%, nt, 6%, nt, nt
O=C(COc1ccc(Cl)cc1)NCc1nnc(SCC(=O)Nc2ccccc2)o1
  -1.1%, i, 0%[11.4 µM], i, 1e-09
CC1(O)C(=O)C=C2C=C3CCCN3C=C2C1=O (configuration not stated)
  -0.9%[11.5 µM], nt, 0%[11.4 µM], nt, nt
COC(=O)c1nc(NC(=O)C(C)(C)C)n[nH]1
  0.6%, i, -1%, i, 1e-09
CN=c1sc2ccccc2n1CC(O)COc1ccccc1 (configuration not stated)
  nt, i, nt, i, 1e-09
CSCCC1NC(=O)NC1=O (configuration not stated)
  -0.5%, i, 0%, i, 5e-09
Cc1ccc(-c2noc(-c3ccccc3Br)n2)cc1
  0.6%, nt, 4%, nt, nt
N#Cc1nc(-c2ccc(OCc3ccc(Cl)cc3)cc2)oc1NCc1cccnc1
  -0.3%, i, 1%, i, 7.2e-09
CCCC(=O)Nc1nnc(CC(=O)OCC)s1
  0.0%, i, -3%, i, 2.8e-08
CCOC(=O)c1ccc(NS(=O)(=O)c2ccc3c(c2)oc(=O)n3C)cc1
  -0.5%, nt, 3%, nt, nt

# Look-ups from the list.
# Reading of CCOC(=O)c1ccc(NS(=O)(=O)c2ccc3c(c2)oc(=O)n3C)cc1 in AID923: -0.5%
# Reading of CN(Cc1cc2ccccc2[nH]c1=O)S(=O)(=O)c1ccccc1 in TSHR ag: -6%
# Reading of CC1(O)C(=O)C=C2C=C3CCCN3C=C2C1=O (configuration not stated) in AID923: -0.9%[11.5 µM]
# Reading of O=C(CCN1CCN(CC(=O)Nc2ccccc2Cl)CC1)Nc1ccccc1F in AID923: -0.7%
# Reading of CCCC(=O)Nc1nnc(CC(=O)OCC)s1 in AID923: 0.0%

# Record cards (already shown). Screens in order: AID923, A488 fluor, TSHR ag, Resorufin fluor, A647 autofl
# CC1(O)C(=O)C=C2C=C3CCCN3C=C2C1=O (configuration not stated) is entered as -0.9%[11.5 µM], nt, 0%[11.4 µM], nt, nt
# O=C(COc1ccc(Cl)cc1)NCc1nnc(SCC(=O)Nc2ccccc2)o1 is entered as -1.1%, i, 0%[11.4 µM], i, 1e-09
# CSCCC1NC(=O)NC1=O (configuration not stated) is entered as -0.5%, i, 0%, i, 5e-09
# CCOC(=O)c1[nH]c(C)c(C(=O)Nc2ccc3c(c2)CCC3)c1C is entered as -0.8%, i, 22%, i, 1.2e-08
# Cc1ccc(-c2noc(-c3ccccc3Br)n2)cc1 is entered as 0.6%, nt, 4%, nt, nt

# Ordered by SMILES length (high to low): 3 of the compounds above
# Under each structure: AID923, A488 fluor, TSHR ag, Resorufin fluor, A647 autofl
CCC/C=C(\CCC)C(NC(=O)c1ccc(C(F)(F)F)cc1)c1ccccc1 (configuration not stated)
  -0.9%, nt, ?, nt, nt
Cc1ccc(S(=O)(=O)CCSc2nc(C)cc(C)c2C#N)cc1
  -1.1%, i, ?, i, 1e-08
Cc1c[n+]([O-])n(-c2ccc(C(=O)O)cc2)n1
  -0.5%, i, 0%, i, 2.6e-08
